HCMV UL50-53 inh: inhibitors of HCMV UL50-UL53 nuclear egress complex interaction; inhibition, % (no concentration beside the values); AID 1918969; HTRF UL50-UL53 interaction, normalized percent inhibition; 190,000 compounds, 0.15% hits;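 active = both replicates at 50% or more, plus weaker picks with an unusually low signal ratio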;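 also: stock transfer was 100 nL into about 20 µL; 0% = negative control wells and 100% = wells with untagged competitor protein; inactives centre near -12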
GIV-Gai inh: GIV-Galpha-i interaction inhibition | P08753 | Galpha-i3/FITC-GIV peptide fluorescence polarization, 90 min; active compounds read low; scaled: aluminum fluoride 0%, vehicle 100% | percent of control (FP), % (concentration not given with the values) | 210,000 compounds, 0.42% hits;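 active = replicate mean at 85% of control or lower, very high polarization wells dropped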;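 also: wells of about 15 µL received 100 nL stock; the first replicate is given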
Target sequence (P08753 whole entry, looked up): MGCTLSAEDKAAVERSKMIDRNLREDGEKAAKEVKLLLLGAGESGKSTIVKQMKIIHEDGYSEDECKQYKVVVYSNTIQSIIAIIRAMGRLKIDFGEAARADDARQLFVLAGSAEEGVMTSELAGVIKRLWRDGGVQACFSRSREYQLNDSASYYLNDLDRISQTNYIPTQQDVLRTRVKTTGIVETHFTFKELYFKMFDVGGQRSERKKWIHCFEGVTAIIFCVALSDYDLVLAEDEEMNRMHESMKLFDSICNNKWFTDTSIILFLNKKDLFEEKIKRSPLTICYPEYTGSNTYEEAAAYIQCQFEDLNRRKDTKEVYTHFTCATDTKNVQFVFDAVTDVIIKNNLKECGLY
Sa growth 42C: S. aureus growth inhibition | S. aureus RN4220 growth, OD600, 20 h, 42 °C; active compounds read low | relative growth, % (test concentration not listed) | 170,000 compounds, 0.53% hits | AID 720641;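 active = growth at 42 °C up to 50% and 20 or more points under that at 30 °C, or under 10% at both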;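 also: 300 nL library stock went into each well; scaled to the means of positive and negative controls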
Sa growth 42C second temp: further read-out of Sa growth 42C, marked with its call; relative growth, %; measured here: growth at 30 °C;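 optical density after 20 h as mean of two plates; 100% = untreated growth and lower means inhibition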
Active calls of the source: *; . = no result given; & = joins results of further samples.

Structure	GIV-Gai inh	HCMV UL50-53 inh	Sa growth 42C	Sa growth 42C second temp
CCC1c2cccn2-c2sc3c(c2CN1C(=O)NCCC(C)C)CCCC3 (stereo not given)	113	-16	.	.
COC(=O)c1ccccc1NC(=O)Cn1c(=O)n(Cc2ccc(C(=O)NCc3ccc4c(c3)OCO4)cc2)c(=O)c2ccccc21	104	2	107	95
Cn1cc(C(=O)N2CCCCC2)c2[nH]c(=O)n(-c3ccc(F)cc3)c(=O)c21	97	-15	.	.
Cc1c(-c2ccccc2)oc2c(C(=O)N3CCC(=O)CC3)cccc2c1=O	.	-30	100	97
CCOC(=O)N1CCN(S(=O)(=O)c2ccc(Br)s2)CC1	104	-2	129	86
Brc1ccc2ncnc(NCCCN3CCOCC3)c2c1	107	-6	90	73
CC(=O)N(C)c1c(C)n(C)n(-c2ccccc2)c1=O	.	-32	104	96
Cc1ccc(/C=C2\CCCC3=C2Nc2nnnn2C3c2ccc(C)cc2)cc1 (stereo not given)	98	.	0.7*	29*
Cc1ccc(CCNC(c2ccc(F)cc2)c2nnc(-c3ccccc3Cl)o2)cc1 (stereo not given)	106	-8	95	93
CC1CCN(C(=S)NC(=O)C2CCCCC2)CC1	107	21	125	98
O=C(Nc1ccc(Cl)cc1F)c1cc(S(=O)(=O)NC2CCCCCC2)ccc1F	104	.	137	97
COc1ccccc1CNC(=O)COC(=O)c1ccncc1	.	-18	93	102
COc1cc(C2C(C#N)=C(C)NC3=C2C(=O)CC(c2ccc(Cl)cc2)C3)ccc1OC(C)=O (stereo not given)	99	-29	.	.
Cc1ccc(Cn2ccn(Cc3ccccc3F)c(=O)c2=O)cc1	102	12	114	94
Cc1ccc(-n2cc(-c3ccccc3)c3c(N4CCCC4)ncnc32)cc1	111	.	107	97
CCN1CCN(c2nc3ncn(CC(=O)N4CCN(c5ccc(F)cc5)CC4)c(=O)c3s2)CC1	98	-25	.	.
Cc1ccc(C2CCCN2C(=O)c2cc(-c3ccc4c(c3)OCO4)on2)cc1 (stereo not given)	111	-35	.	.
CCOc1ccc(-c2cc(-c3nc(-c4ccc(C)cc4)no3)[nH]n2)cc1	106	.	109	95
O=C(CSc1nnc(-c2cccs2)o1)Oc1ccccc1Cl	102	-24	96	87
O=C(O)C1CCC(CNCc2cccnc2)CC1 (stereo not given)	105	9	90	98
COC(=O)Nc1ncc(CN2CCCC2)s1	97	-21	105	86
COc1ccc(C2=NN(C(=O)c3ccc(Br)o3)C(c3ccccc3F)C2)cc1OC (stereo not given)	104	-17	.	.
O=C(NC1CC1)c1ccc2snnc2c1	103	-12	91	80
CN1CCN(c2c3c(nc4nc(-c5ccccc5)nn24)CCCC3)CC1	99	-11	.	.
C/C=C/C(=O)c1cc(Cl)ccc1O	.	-11	86	83
CCOC(=O)C1CCCN(C(=O)Cn2c(=O)c3ccccc3n3c(=S)sc(-c4ccc(Cl)cc4)c23)C1 (stereo not given)	135	12	.	.
CCOC(=O)c1c(NC(=O)Cn2nc(C)c([N+](=O)[O-])c2C)sc2c1CCC(C(C)(C)C)C2 (stereo not given)	102	-6	.	.
O=C(O)c1cccnc1SCCC(F)=C(F)F	101	-16	.	.
CC(N=C1NS(=O)(=O)c2ccccc21)C(=O)N1CCc2ccccc2C1 (stereo not given)	.	-11	107	83
CCCOc1ccc(C(=O)N(Cc2cccs2)c2ccc(C)cc2)cc1	100	-7	90	83
COc1ccc(-n2c(SCC(=O)NC(C)(C#N)C(C)C)nc3ccccc32)cc1 (stereo not given)	.	-13	100	85
CNC(=O)Nc1ccc2nc(C)sc2c1	103	7	105	66
NC(=O)C(Cc1ccccc1)NC(=O)Cc1ccc(F)cc1 (stereo not given)	97	-14	106	82
Cn1c(=O)[nH]c(=O)c2cnc(-c3ccc(Cl)cc3)nc21	102	-2	.	.
O=C1c2ccccc2-c2onc3c(Oc4ccccc4)cc(O)c1c23	252	-38	94	72
Cc1ccccc1NC(=O)C(C)Sc1nc2c(c(=O)[nH]1)CCCC2 (stereo not given)	98	-29	.	.
CC(C)(Cc1nc2ccccc2[nH]1)c1nc2ccccc2[nH]1	106	8	81	104
O=C(CN1C(=O)/C(=C\c2cccc(F)c2)Oc2ccccc21)N1CCN(c2ncccn2)CC1	107	.	110	94
CCS(=O)(=O)N1CC(=O)N(c2cc(Cl)ccc2C)C(C)(C(=O)NC2CCCCCC2)C1 (stereo not given)	104	.	133	88
C=CCN(CC=C)C(=O)Cc1ccc(F)cc1	106	3	103	99
COc1ccc(S(=O)(=O)c2c(O)c3ccc(C(=O)Nc4ccccc4)cc3[nH]c2=O)cc1	111	.	122	91
O=S(=O)(c1ccc(S(=O)(=O)N(Cc2ccccc2)Cc2ccco2)cc1)N1CCCCCC1	103	-33	106	97
COc1ccccc1CNC(=O)CC1N=C2c3ccccc3N=C(SCC(=O)Nc3ccc(F)cc3)N2C1=O (stereo not given)	101	.	66	86
Cc1nn(C(C)C(=O)N2CCOCC2)c(=O)c2c(-n3cccc3)n(-c3ccccc3)nc12 (stereo not given)	101	-1	.	.
CCOc1ccccc1N1CCN(Cc2ccsc2)CC1	101	-2	107	81
CC(=O)N1c2ccc(S(=O)(=O)N3CCCCCC3)cc2CC1C(=O)NCc1ccccc1 (stereo not given)	104	.	81	89
CCOC(=O)C1=C(C)N=c2s/c(=C\c3ccc(O)cc3)c(=O)n2C1c1ccc(OC)c(OCC)c1 (stereo not given)	145	10	.	.
C=C(C)CN(CC)C(=O)CSc1nc2ncc(Cl)cc2[nH]1	.	-32	95	88
CSc1cccc(NC(=O)c2cc3c(ccc4ccccc43)o2)c1	104	.	103	92
CCOc1cc(CNCCNC(=O)c2nonc2N)cc(Br)c1OCC	99	-31	.	.

The listing continues:
Structure	GIV-Gai inh	HCMV UL50-53 inh	Sa growth 42C	Sa growth 42C second temp
CCOC(=O)C1CCCN(C(=O)c2cc3c(=O)[nH]c4ccc(C)cc4c3s2)C1 (stereo not given)	107	-31	103	86
Cc1ccc(CCNS(=O)(=O)c2cc(-c3cc(C)no3)ccc2C)cc1	102	.	99	84
Cc1ccc(S(=O)(=O)N2N=C(c3ccccc3)CC2c2ccc(Cl)cc2)cc1 (stereo not given)	112	.	108	91
O=C(O)CCN1CCC(Cc2ccccc2)CC1	101	-7	76	93
COc1ccc(C2CC(=O)c3cnc4c(-c5ccc(Cl)cc5)c(C)nn4c3C2)c(OC)c1 (stereo not given)	96	-15	.	.
Cc1snc(-c2c(Cl)cccc2Cl)c1C(=O)O	98	-20	90	82
Oc1c(Cl)cc(Cl)cc1CNn1cnnc1	101	6	113	102
CCOCCCn1c(C)c(C)c(C#N)c1N	.	-7	93	91
COc1ccc(C(=O)Nc2ccccc2C(=O)NC(C(=O)O)C(C)C)cc1 (stereo not given)	99	-9	110	93
O=S(=O)(/N=C(\N/N=C/c1ccccc1O)N1CCCC1)c1ccccc1	105	-9	102	100
Cc1ccc(C(CC(=O)O)c2ccco2)cc1 (stereo not given)	107	.	98	86
N#Cc1cc2c(nc1SCc1ccccc1)CCC2	.	-7	100	90
O=S(NC1CCCCC1)C12CC3CC(CC(C3)C1)C2 (stereo not given)	105	-4	140	108
COc1c(C)cc(S(=O)(=O)Nc2ccc(Cl)cn2)c(C)c1C	98	19	94	99
O=C1c2cccnc2C(=O)N1Cc1ccc(S(=O)(=O)N2CCN(c3ccc(Cl)cc3)CC2)cc1	101	-10	.	.
COc1ccc(Oc2cccc(Cl)c2C#N)cc1	107	6	112	88
Cc1cc(C)nc(NS(=O)(=O)c2ccc(NC(=O)CSc3nc(C)cc(C)c3C#N)cc2)n1	96	4	.	.
Cc1ccc(N2CC(NC(=O)c3cc4ccccc4o3)CC2=O)cc1 (stereo not given)	105	.	118	98
Cc1ccc(C)c(CN2C(=O)c3ccccc3S(=O)(=O)c3ccc(C(=O)OCC4CCCO4)cc32)c1 (stereo not given)	106	.	117	94
Cc1cccc(C(=O)NCN2CCN(c3ccccc3C#N)CC2)c1	102	-2&15	.	.
CCOc1ccccc1OCc1n[nH]c(=S)n1N	.	1	104	95
COc1ccc(Cl)cc1NC(=O)Cn1c(=O)n(Cc2ccco2)c(=O)c2ccc(C(=O)NC3CCCC3)cc21	103	-27	102	83
Cc1ccc2c(=O)cc(C(=O)Nc3nnc(C)s3)oc2c1	104	-62	101	86
c1ccc(-c2ccc(-c3ccccn3)s2)nc1	98	-84	106	84
O=C(COC(=O)c1cc(=O)[nH]c(=O)[nH]1)NCc1ccccc1	.	2	96	94
CC(=O)N(/C=C1\Sc2ccccc2C1=O)c1ccc(C(=O)O)cc1	131	-56	.	.
CC(=O)c1cccc(NC(=O)c2cc3sc(Cl)cc3n2C)c1	105	13	88	90
CCOC(=O)c1c(-c2ccc(OC)cc2)oc2ccc(OCc3ccc(Br)cc3)cc12	104	-26	94	78
Cc1ccc(NC(=O)c2ccco2)cc1NC(=O)C(C)(C)Oc1ccc(Cl)cc1	101	11	82	61
CCC(C)(C)C(=O)N1CCC(C(=O)OC)CC1	.	-19	98	85
Cn1cnnc1SCc1ccc(Cl)cc1	101	-7	102	92
CN(C)C(=S)SCC(=O)Nc1ccc2c(c1)OCCO2	.	-26	108	85
c1cc(-c2nn[nH]n2)ccc1CN1CCCCC1	97	.	103	92
COc1ccc(CCC(N)=O)cc1OC	97	-5	95	94
NC(=O)NC(=O)CSc1nnc(C2CC2)n1N	.	-12	89	95
O=C(NC1CC(=O)N(c2ccccc2)C1)C1CCCCC1 (stereo not given)	98	.	108	97
Cc1ccc(NC(=O)CSc2nc3c(c(=O)n2CCc2ccccc2)SCC3)cc1Cl	101	.	98	88
CC(C)N(CC(N)=O)C(=O)COc1ccccc1C#N	.	-1	101	93
Cc1nnc(N(C)C(=O)c2ccc3c(c2)OCO3)s1	100	0	99	85
CCOc1ccc(C(=O)N2CCC(C(N)=O)CC2)cc1	.	-10	112	88
Cc1ccc(NC(=O)CC2SC(=NC3(c4c(O)[nH]c(=O)[nH]c4=O)CCCC3)NC2=O)cc1 (stereo not given)	108	-12	101	86
Cc1ccc(C(=O)NC(=O)CSc2n[nH]c(N)n2)cc1	106	-20	105	90
Cc1ccc(S(=O)(=O)c2nc(-c3ccc(F)cc3)oc2SCC(=O)NC2CCCCC2)cc1	106	0	99	110
COc1ccc(OC)c(CCNC(=O)c2cnn(-c3ccccc3)c2C2CCN(C(=O)OC(C)(C)C)CC2)c1	111	.	97	91
O=C(N/N=C/c1ccc(OC(F)F)cc1)C1=COCCO1	.	-58	88	93
O=C(CC1(O)C(=O)N(CCc2ccccc2)c2ccc(Br)cc21)c1ccc(F)cc1 (stereo not given)	101	11	101	74

17 entries out of the list, arranged by SMILES length, ascending:
Structure	GIV-Gai inh	HCMV UL50-53 inh	Sa growth 42C	Sa growth 42C second temp
Cn1cnnc1SCc1ccc(Cl)cc1	101	-7	102	92
NC(=O)NC(=O)CSc1nnc(C2CC2)n1N	.	-12	89	95
c1cc(-c2nn[nH]n2)ccc1CN1CCCCC1	97	.	103	92
CCC(C)(C)C(=O)N1CCC(C(=O)OC)CC1	.	-19	98	85
CC(C)N(CC(N)=O)C(=O)COc1ccccc1C#N	.	-1	101	93
CN(C)C(=S)SCC(=O)Nc1ccc2c(c1)OCCO2	.	-26	108	85
O=C(NC1CC(=O)N(c2ccccc2)C1)C1CCCCC1 (stereo not given)	98	.	108	97
O=C(N/N=C/c1ccc(OC(F)F)cc1)C1=COCCO1	.	-58	88	93
Cc1ccc(C(=O)NC(=O)CSc2n[nH]c(N)n2)cc1	106	-20	105	90
CC(=O)c1cccc(NC(=O)c2cc3sc(Cl)cc3n2C)c1	105	13	88	90
O=C(COC(=O)c1cc(=O)[nH]c(=O)[nH]1)NCc1ccccc1	.	2	96	94
Cc1ccc(NC(=O)c2ccco2)cc1NC(=O)C(C)(C)Oc1ccc(Cl)cc1	101	11	82	61
CCOC(=O)c1c(-c2ccc(OC)cc2)oc2ccc(OCc3ccc(Br)cc3)cc12	104	-26	94	78
O=C(CC1(O)C(=O)N(CCc2ccccc2)c2ccc(Br)cc21)c1ccc(F)cc1 (stereo not given)	101	11	101	74
Cc1ccc(S(=O)(=O)c2nc(-c3ccc(F)cc3)oc2SCC(=O)NC2CCCCC2)cc1	106	0	99	110
Cc1ccc(NC(=O)CC2SC(=NC3(c4c(O)[nH]c(=O)[nH]c4=O)CCCC3)NC2=O)cc1 (stereo not given)	108	-12	101	86
COc1ccc(OC)c(CCNC(=O)c2cnn(-c3ccccc3)c2C2CCN(C(=O)OC(C)(C)C)CC2)c1	111	.	97	91
